BJeLR lethal: MLPCN primary cell-based screen for lethality selective to Ras in HRASV12 cells | inhibition, % (test concentration not listed) | BJeLR (HRASV12) viability, CellTiter-Glo ATP luminescence, 48 h; reference of the scale not given here | 0.17% of 300,000 active;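 active = replicate mean above 50%; inconclusive = above 50% but judged a plate artefact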;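 also: 50 nL library stock added to about 25 µL; numbers are from one replicate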
RN4220 kill: growth inhibition of S. aureus RN4220, primary screen, OD600; inhibition, % (concentration not given with the values); 16 h; 0.33% of 330,000 active;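 active = z-score of -3 or lower and OD600 up to 0.18 on both plates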;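 also: plate controls were untreated cells for no effect and reference antibiotic for full effect; stock transfer was 100 nL into about 80 µL; one replicate is shown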
Mtb hypoxia inh: PubChem AID 1159583 | M. tuberculosis hypoxia-regulated fluorescent reporter, fluorescence | fluorescence inhibition, % (test concentration not listed) | 0.1% of 300,000 active;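 active = 35 to 45% if threefold the growth effect, above 45% if 1.5-fold the growth effect; inactive = the rest, general growth blockers included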;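 also: wells of about 50 µL received 100 nL stock; 0% = vehicle wells and 100% = reference inhibitor wells; whole bacteria with a GFP reporter of the hypoxia response; strong numbers were not always called active; many hits fall short of the cut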
Bead autofluor: flagged as autofluorescent in microsphere protease counterscreen; compound autofluorescence counterscreen, microsphere flow cytometry; hits give high values; fluorescence intensity (test concentration not listed); 3.1% of 360,000 active; AID 624483;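 active = at least 3 SD above the mean of all compounds, about 16000 in these data; inconclusive = too few beads counted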;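 also: 100 nL of 1 mM stock went into each well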
PrP UTR inh: inhibition of PrP 5' UTR reporter expression. cell-based PrP 5' UTR mRNA reporter, plate reader. inhibition, % (no concentration beside the values). 0.35% of 340,000 active;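 active = every replicate at 50% or more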;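 also: 0 = median of the neutral control wells; tested in H4 reporter cells; numbers are from one replicate; inactives centre near -14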
ugtP null kill: growth inhibition of ugtP-null S. aureus, primary screen, RN4220 ugtP deletion, OD600; 16 h; some inactives read as strong as hits; growth inhibition, % (no concentration beside the values); 0.54% of 330,000 active;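 active = z-score under -3 and OD600 up to 0.15 on both plates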;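 also: plate controls were untreated wells for no effect and antibiotic for full effect; wells of about 80 µL received 100 nL stock; the first replicate is given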
Mtb hypoxia inh growth: recorded beside Mtb hypoxia inh, whose call it bears; growth inhibition, %; measured here: M. tuberculosis growth (absorbance);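 0% = vehicle and 100% = reference antibiotic; read after six days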
* marks the source's active call; other numbers are inactive results; ? = inconclusive; . = not tested or not shown.

cpd	Molecule	Bead autofluor	RN4220 kill	ugtP null kill	BJeLR lethal	Mtb hypoxia inh	Mtb hypoxia inh growth	PrP UTR inh
1	CC(NC(=O)c1nc[nH]c1C(=O)NC(C)C(=O)OC(C)(C)C)C(=O)OCc1ccccc1 (centres undefined)	.	6.5	-2	.	6	8	.
2	O=C(CSc1nc(-c2ccc(F)cc2)cs1)NCC1CCCO1 (centres undefined)	4043	2.4	4	.	5	5	-21
3	O=C(c1cccs1)C1CN2CCC1CC2 (centres undefined)	2999	2.6	-7	-2	.	.	-2
4	COc1ccccc1NC(=O)NCCc1ccccc1	5470	4.3	7	.	0	10	-20
5	CCOc1ccccc1-n1c(SCC(=O)N2CCOCC2)nc2ccccc2c1=O	4361	4.8	8	-10	21	9	-4
6	COc1ccc(C)cc1NC(=O)C1CC1c1ccccc1 (centres undefined)	6414	7.6	5	-7	11	-6	1
7	Cc1ccnc(NC(=O)CCC(=O)N(CC(=O)NCc2ccc(F)cc2)Cc2ccco2)c1	5730	1.5	-1	-5	-15	-1	-44
8	CC(=O)c1ccc(-n2c(CCC(=O)O)ccc2-c2ccc(Br)cc2)cc1	3292	17	6	0	-5	5	-22
9	CC(=O)N1C(C)C=C[C@]1(Cc1ccccc1)C(=O)NCc1cc(F)cc(C(F)(F)F)c1 (some centres undefined)	.	7.6	-6	.	11	11	.
10	CCN(CC)c1c([N+](=O)[O-])c(=O)n(C)c2ccccc12	3733	7.4	-3	14	5	7	-21
11	O=C(CN(CCc1ccccc1)S(=O)(=O)c1ccc(Br)cc1)NN=Cc1ccc2c(c1)OCO2	.	7.1	4	.	-4	-6	.
12	CSc1ccccc1OCc1cc(C(=O)NCCCc2ccccc2)no1	4387	0.1	9	-7	9	9	-1
13	CCOc1ccccc1C(=O)NCC(=O)NCC1CCCCC1	3479	-0.6	6	-10	6	-8	-22
14	C=CCN1CC2(c3ccccc3)CN(CC=C)CC(c3ccccc3)(C1)C2=O	2215	2.2	1	-6	3	1	-6
15	O=C(Nc1cc(Cl)ccc1Cl)Nn1cnnc1	6529	-0.6	4	3	-3	-13	-13
16	CN1CCN(C(=O)CCNC(=O)Cn2cnc3ccccc3c2=O)CC1	5171	1.1	11	17	3	4	-14
17	C=CCn1c(C)cc(C(=O)CN2NS(=O)(=O)c3ccccc3C2=O)c1C	5150	2.7	7	15	-2	5	-36
18	CCCCC(=O)N/N=C/c1ccc(Sc2cccc3cccnc23)o1	3335	.	.	-12	.	.	-14
19	O=C(O)c1cccc2c1C(=O)c1ccccc1-2	.	4.4	4	0	-1	-6	-25
20	Cn1nc(C(F)(F)F)c(C=NOC(=O)c2ccccc2)c1Sc1ccc(Cl)cc1	.	4.5	2	.	6	5	.
21	CC(C)N(Cc1nc(-c2ccc(Cl)cc2)no1)C(=O)C12CC3CC(CC(C3)C1)C2	4695	2.5	1	-13	.	.	-43
22	Cc1nc(N)sc1N=Nc1ccccc1C(F)(F)F	3703	7.6	55	-6	19	2	-32
23	CC1=CC(=O)Nc2cncnc2N1	4207	2.9	4	.	10	4	-46
24	Cc1[nH]c2ccccc2c1C1=NNC(=Nc2ccc(F)cc2)SC1	2464	14	-7	.	0	-7	-26
25	COc1cccc(-c2nc(CS(=O)(=O)CC(=O)Nc3cccc(C)c3C)c(C)o2)c1	6681	-7.5	0	2	7	8	-17
26	C=CCOC1COC2C(OCC=C)COC12 (centres undefined)	2896	1.2	-3	.	5	-3	-7
27	Cc1c(Cc2ccccc2)c(=O)oc2cc(OCc3ccc(C(=O)O)cc3)ccc12	3296	24	1	6	12	6	0
28	Cc1ccc(/C=N/NC(=O)CNC(=O)c2ccc(S(=O)(=O)N(C)C)cc2)o1	2194	.	.	-14	.	.	-7
29	CCCN1C(=O)C(O)(CC(=O)c2ccc3c(c2)OCCO3)c2ccccc21 (centres undefined)	5886	3.3	7	-7	.	.	-16
30	CC(=O)Nc1ccc(S(=O)(=O)N2CCc3cc4c(cc3C2)OCCCO4)cc1	5852	2.3	-2	11	8	8	-20
31	CCOC(=O)N1CCN(C(=O)c2cc3c(-c4cccc(OC)c4)nn(C)c3s2)CC1	3841	2.4	0	1	2	5	-9
32	COc1cc(-n2c(=O)c3ccccc3n(Cc3cccc(F)c3)c2=O)cc(OC)c1OC	5916	1.9	7	3	13	20	-14
33	CC(C)(C)c1ccc(C(=O)NC(=O)CSc2n[nH]c(N)n2)cc1	3065	-1.0	-6	.	-5	-13	-7
34	CCOc1cccc(CN2CCN(CCCc3ccccc3)C(CCO)C2)c1O (centres undefined)	4050	5.1	12	8	-1	9	-46
35	CCCCN(Cc1cc2cc(C)ccc2[nH]c1=O)C(=O)c1ccccn1	3571	.	.	3	.	.	-12
36	O=C(Nc1nc(=O)n(C(=O)c2cccc(C(F)(F)F)c2)s1)c1ccccc1	6002	-1.5	3	28	11	-1	-15
37	O=S(=O)(NCc1ccccc1)c1cccc2cccnc12	2375	7.3	1	12	17	2	31
38	Cc1nc2ccc(NC(=O)/C=C/C(=O)O)cc2nc1C	3847	6.2	15	-1	5	0	-23
39	C/C(CCc1ccco1)=N/NC(=O)CCC(=O)Nc1cccc(Cl)c1	4958	.	.	0	.	.	-20
40	Cc1nc(NC(=O)c2cccs2)ccc1Br	2042	13	9	-1	-11	-3	-43
41	O=[N+]([O-])c1cnn(-c2nc(-c3cccs3)cc(C(F)(F)F)n2)c1	4353	3.1	3	4	-2	5	-23
42	Cc1ccc(N2CC(C(=O)NC3CCSC3=O)CC2=O)cc1 (centres undefined)	5109	3.9	0	.	2	7	-29
43	Cc1ccc(C)c(NC(=S)N(Cc2ccc(Cl)cc2)Cc2ccc(C(=O)O)cc2)c1	3201	44	14	4	3	6	1
44	COC(=O)[C@H](Cc1ccccc1)NC(=O)Cn1cnc(C(=O)Nc2ccc(C)c(C)c2)n1	3352	-2.7	1	.	-3	6	-29
45	Cn1c(SCC(=O)Nc2ccccc2O)nnc1-c1ccco1	6071	1.0	3	5	14	16	-16
46	CC(=O)N1CC(=O)Nc2ccc(F)cc2C1c1ccccc1 (centres undefined)	3536	2.3	-4	2	0	5	-19
47	C[C@@H]1CN([C@@H](C)CO)C(=O)c2cc(NC(=O)CCC(F)(F)F)ccc2O[C@H]1CN(C)Cc1ccc(Cl)c(Cl)c1	3924	3.8	-8	.	-11	4	-12
48	CCc1nccn1CCC(=O)NC1CC(C)(C)Cc2c1cnn2-c1ccc(C)cc1 (centres undefined)	6631	-2.5	-3	-2	-6	2	-22
49	CCN(CC)C(c1ccc(F)cc1)c1nnnn1C1CCCCC1 (centres undefined)	21991*	6.3	-11	-2	14	13	-3
50	COc1ccc(CN=C2Nc3ccccc3CS2)cc1	?	55	81	8	10	3	-36
51	COc1ccc(NC2CCCN(C(=O)CCCn3cncn3)C2)cc1OC (centres undefined)	5617	1.2	0	-1	7	1	-5
52	ON=C1/C(=N\O)CC2(C/C1=N/O)OCCO2	5810	.	.	7	.	.	-30
53	CN1Cc2c(N3CCOCC3)nc(SCCC#N)c(C#N)c2CC1(C)C	5030	1.2	1	3	15	4	-7
54	Cc1ccc(C)c(NC(=O)c2cc3ccccc3o2)c1	3804	-0.6	-4	8	17	6	-50
55	CC(C)NC(=S)Nc1ccc2cn[nH]c2c1	2433	4.2	1	-2	6	6	-5
56	CC(C)N(C=O)C1(C(=O)NC2CCCCC2)CCCCC1	9363	4.4	1	0	3	-2	-25
57	CCN(CC)CCN1C(=O)c2ccccc2NC1c1ccc(C)cc1 (centres undefined)	23099*	4.4	0	12	13	6	-23
58	CC(C)N1CCC(N2CCN(Cc3ccc(Oc4ncccn4)cc3)CC2CCO)CC1 (centres undefined)	4699	5.1	3	1	8	-1	-11
59	Cc1cc(C(=O)N/N=C/c2ccc(O)c(O)c2O)c(C)n1-c1ccccc1	3338	.	.	1	.	.	-64
60	Cc1cc([N+](=O)[O-])nn1Cc1ccc(C(=O)N/N=C/c2ccccc2)cc1	2052	.	.	2	.	.	-14

Following part.
cpd	Molecule	Bead autofluor	RN4220 kill	ugtP null kill	BJeLR lethal	Mtb hypoxia inh	Mtb hypoxia inh growth	PrP UTR inh
61	Cc1cc(Oc2cc(NN3CCCCC3)c([N+](=O)[O-])cc2[N+](=O)[O-])ccc1[N+](=O)[O-]	2939	.	.	-6	.	.	9
62	CCCC(NS(=O)(=O)c1ccc(Br)cc1)C(=O)O (centres undefined)	25446*	0.1	2	4	4	-5	-19
63	C/C(=N/NS(=O)(=O)c1ccccc1)c1c[nH]c2ccccc12	4092	.	.	-3	.	.	-3
64	O=C(O)c1ccc([N+](=O)[O-])cc1	2928	2.8	5	.	1	-3	-13
65	Cc1ccc(-c2nc3cccnc3s2)cc1NC(=O)C1c2ccccc2Oc2ccccc21	6464	4.8	-3	10	6	10	-16
66	O=S(=O)(c1ccccc1)N1CN(c2ccc(F)cc2F)c2nc3ccccc3nc21	3756	-0.5	0	.	2	12	.
67	Cc1ccc(/C=N/NC(=O)c2ccc(Br)o2)s1	2035	.	.	5	.	.	-80
68	CN(C)CCCN1C(=O)c2oc3ccc(Cl)cc3c(=O)c2C1c1cccnc1 (centres undefined)	6463	-7.5	-9	-3	7	6	-16
69	C=CC[C@@H](CC(=O)OC(C)(C)C)C(=O)OC[C@@H]1CCCN1C(=O)[C@H](CC=C)CC(=O)NCCO	3244	-0.3	2	.	-10	-3	-28
70	CCOc1ccc(S(=O)(=O)N2CCN=C2c2ccccc2)cc1	5692	0.3	0	32	-3	-4	-12
71	COc1ccc(-c2cn(CCC(=O)NCc3ccc(C)cc3)c(-c3ccncc3)n2)cc1	3477	5.6	1	3	3	7	-13
72	O=C(Nn1c(-c2ccccc2)nc2ccccc2c1=O)c1cccs1	2619	10	-7	9	-6	-7	-9
73	O=C(N/C=C/n1cnc2cc(C(F)(F)F)ccc21)c1ccccc1F	4151	-3.1	-11	1	-14	6	-15
74	Cc1ccccc1C(=O)Nc1ccnn1C1CCN(C(C)Cc2ccccc2F)CC1 (centres undefined)	12348	1.6	11	-7	5	-2	-6
75	N#CC1C=Cc2ccccc2N1C(=O)c1ccccc1 (centres undefined)	4616	4.3	2	9	14	17	-2
76	O=C(CNCc1ccccn1)Nc1ccc([N+](=O)[O-])cc1C(=O)Nc1ccccc1F	3707	0.3	8	9	9	2	-35
77	CN(CC(=O)Nc1ccc(OC(F)(F)F)cc1)C1CCCCC1	3307	-1.7	-2	9	6	3	-9
78	Cc1c(CCOC(=O)C23CC4CC(CC(C4)C2)C3)sc[n+]1CC#N	3813	5.9	-3	-13	8	-5	-18
79	Cc1cccc(N=Cc2sc3ccccc3c2O)n1	.	8.1	3	.	-1	-9	.
80	Cc1sc2nc(CN3CCCC3)nc(NCc3ccncc3)c2c1C	5624	2.7	-1	5	-3	4	33
81	CC(=O)c1ccc(NC(=O)Nc2cccc(Cl)c2)cc1	2527	-4.4	-42	9	.	.	-115
82	Cc1ccc(S(=O)(=O)N2CCN(C3CCC(c4ccccc4)CC3)CC2)cc1 (centres undefined)	.	5.9	0	-4	9	8	.
83	COc1ccc(C2=NN(CC(=O)NCC(OC)OC)C(=O)CC2)cc1	4047	-0.8	1	-10	17	7	-11
84	O=c1cc(Nc2ccc3c(c2)OCCO3)[nH]c(=O)n1-c1ccc(Br)cc1	12728	6.4	-1	8	-1	5	-19
85	COc1cc(C(C#N)N2N=C(c3ccccc3)CC2c2ccccc2)ccc1O (centres undefined)	9069	0.7	0	7	11	12	-39
86	CN(C)CCNC(=S)Nc1ccc(F)c(F)c1F	3346	5.4	9	-19	5	12	-14
87	COC(=O)C1C(O)=C(C=Nc2ccccc2)C(=O)CC1(C)C (centres undefined)	4070	-2.1	-2	1	-9	-9	-83

Gathered by group: the entries above containing a cyano group (four)
cpd	Molecule	Bead autofluor	RN4220 kill	ugtP null kill	BJeLR lethal	Mtb hypoxia inh	Mtb hypoxia inh growth	PrP UTR inh
53	CN1Cc2c(N3CCOCC3)nc(SCCC#N)c(C#N)c2CC1(C)C	5030	1.2	1	3	15	4	-7
75	N#CC1C=Cc2ccccc2N1C(=O)c1ccccc1 (centres undefined)	4616	4.3	2	9	14	17	-2
78	Cc1c(CCOC(=O)C23CC4CC(CC(C4)C2)C3)sc[n+]1CC#N	3813	5.9	-3	-13	8	-5	-18
85	COc1cc(C(C#N)N2N=C(c3ccccc3)CC2c2ccccc2)ccc1O (centres undefined)	9069	0.7	0	7	11	12	-39
